Source: PubChem
KCNQ2 inh: KCNQ2 potassium channel inhibitors, primary screen, cell-based, CHO-K1, FluxOR thallium flux, B-score (AID 2156). Potassium voltage-gated channel subfamily KQT member 2 (Rattus norvegicus), O88943. 20 min; stronger effect = lower value; only compounds with negative scores are shown here; some inactives read as strong as hits. B-score at 10 µM. 310,000 tested, 1.1% active;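 active = fluorescence ratio B-score at most minus 3 library SDs, with starting brightness B-score within 2 library SDs, cut at about -5.5 in these data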
Target sequence (O88943 whole entry, looked up): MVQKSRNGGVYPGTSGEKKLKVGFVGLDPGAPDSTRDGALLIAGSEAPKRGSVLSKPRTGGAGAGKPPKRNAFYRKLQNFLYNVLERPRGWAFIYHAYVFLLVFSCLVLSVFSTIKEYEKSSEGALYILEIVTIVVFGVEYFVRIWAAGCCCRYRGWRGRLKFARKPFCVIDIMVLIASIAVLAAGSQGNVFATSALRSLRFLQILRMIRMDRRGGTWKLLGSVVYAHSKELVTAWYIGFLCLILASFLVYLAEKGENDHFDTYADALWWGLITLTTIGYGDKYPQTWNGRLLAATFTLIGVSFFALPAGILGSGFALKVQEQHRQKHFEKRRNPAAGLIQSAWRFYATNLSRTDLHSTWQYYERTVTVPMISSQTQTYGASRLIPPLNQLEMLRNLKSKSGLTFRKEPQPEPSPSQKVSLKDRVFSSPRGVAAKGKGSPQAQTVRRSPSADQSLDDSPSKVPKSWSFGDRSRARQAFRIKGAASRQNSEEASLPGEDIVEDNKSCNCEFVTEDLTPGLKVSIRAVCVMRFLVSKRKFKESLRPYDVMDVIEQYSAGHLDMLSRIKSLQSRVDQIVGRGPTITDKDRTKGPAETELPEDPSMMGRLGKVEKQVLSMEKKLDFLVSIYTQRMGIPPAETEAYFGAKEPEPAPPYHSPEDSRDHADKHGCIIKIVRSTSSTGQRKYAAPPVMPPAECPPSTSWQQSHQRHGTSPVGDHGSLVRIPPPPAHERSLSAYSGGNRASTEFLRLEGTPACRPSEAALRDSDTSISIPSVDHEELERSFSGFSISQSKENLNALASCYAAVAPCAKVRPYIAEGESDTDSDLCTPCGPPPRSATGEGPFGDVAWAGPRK
KCNQ2 inh baseline: also measured in KCNQ2 inh; calls as there; B-score; measured here: initial fluorescence intensity artifact check;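 brightness before thallium and not channel activity; 0 = typical well and far values either way flag optical interference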
* = called active by the depositor; i = inactive. The list is partial, so the mix of outcomes need not match the whole.

SMILES	KCNQ2 inh	KCNQ2 inh baseline
Cn1c(=O)c2c(-c3ccc(OC(F)F)cc3)cc(-c3ccccc3)nc2n(C)c1=O	i	-0.28
COc1cccc(C2C(C(=O)c3cc4ccccc4o3)=C(O)C(=O)N2CCN2CCOCC2)c1 (configuration not stated)	i	0.68
CCOc1ccccc1CN1C(=O)c2ccccc2C1C(=O)NCC1CCCO1 (configuration not stated)	i	-0.59
Cc1cccc(C(=O)NCC(=O)OCCOc2ccccc2Cl)c1	i	0.97
CC(NC(=O)CN1CCN(S(=O)(=O)c2ccc(Br)cc2)CC1)c1ccccc1 (configuration not stated)	i	0.47
CCNC(=S)N/N=C/c1ccc(C(=O)O)cc1	i	-0.1
O=C(Nc1ccccc1)C1=C[C@@H](C2CCCCC2)C[C@@H](OCCCCO)O1	i	-1.23
CCN(CC)CCN(C(=O)c1ccc2c(c1)OCCO2)c1nc2ccc(C)cc2s1	i	2.51
COc1ccc(CNC(=O)C2CCCN(S(=O)(=O)c3c(C)n[nH]c3C)C2)cc1 (configuration not stated)	i	0.53
COc1cccc(C(=O)N/N=C2/SCC(=O)N2CCc2ccc(OC)c(OC)c2)c1	i	-0.62
Cc1cccc(OCCOC(=O)C2CCN(S(=O)(=O)c3ccc(C)c(C)c3)CC2)c1	i	-0.63
Cc1nnc(SCC(=O)Nc2ccccc2F)n(N)c1=O	i	1.73
CCc1nnc(NC(=O)CCC(=O)Nc2ccc(C)cc2)s1	i	0.54
CSc1ccccc1NC(=O)CCn1c(=O)sc2ccccc21	i	0.19
O=C(Nc1ccnn1C1CCN(Cc2ccc3nonc3c2)CC1)c1cccc(F)c1	i	0.3
O=C(/C=C/c1cccc(Br)c1)NC1CCN(Cc2ccccc2)CC1	i	0.71
COc1ccc(N2CCN(C(CNC(=O)COc3ccccc3)c3ccco3)CC2)cc1 (configuration not stated)	i	1.57
COc1cc2c(cc1NC(=O)CSc1nc3ccccc3[nH]1)oc1ccccc12	i	-0.13
Cc1ccc(OCC(=O)Nc2sc3c(c2C#N)CCC3)cc1C	i	1.05
Cc1nonc1NC(=O)c1ccccc1Br	i	0.46
COc1ccc(/C=C/C(=O)OCC(=O)NCc2ccco2)cc1OC	i	-0.6
CC1CCCCC1NC(=O)COC(=O)COc1ccccc1Cl (configuration not stated)	i	0.39
Cn1c(Cl)cnc1C1CC(=O)c2cc(Cl)ccc2O1 (configuration not stated)	i	-1.31
COc1ccc(NC(=S)N2CCN(c3ccccc3)CC2)c(OC)c1	i	1.64
Cc1ccc(C(CNS(=O)(=O)c2ccc(Cl)cc2)N2CCN(C)CC2)cc1 (configuration not stated)	i	0.04
Cc1ccccc1C(=O)O/N=C(\c1ccccc1)c1ccccn1	i	-2.78
CCN(CCNC(=O)Cn1c(=O)sc2ccccc21)c1ccccc1	i	2.26
COc1ccc(-c2oc(=O)n(C)c2-c2ccc(OC)cc2)cc1	i	1.46
CC1Cc2ccccc2N1C(=O)CSc1nnc2c(n1)[nH]c1ccccc12 (configuration not stated)	i	0.05
COc1ccc(C(=O)NC(=S)NNC(=O)[C@H]2C[C@@H]2c2ccccc2)cc1OC	i	-0.05
CCO[C@H]1OC(C(=O)N2CCN(Cc3ccc4c(c3)OCO4)CC2)=C[C@@H](c2ccc3c(c2)OCO3)[C@@H]1CCCO	i	-0.06
CCN(CC)c1cc(C)c2ccccc2n1	i	-0.06
O=C(CCN1CCCCC1=O)NC1CCCN(Cc2ccc(Cl)cc2)C1 (configuration not stated)	i	-0.96
CCn1c(=O)oc2cc(NC(=O)CCl)ccc21	i	-0.03
COCCn1c(Cc2ccccc2)nnc1SCC(=O)NC1CC1	i	-1.64
O=C(NC1C2CC3CC(C2)CC1C3)C1CC1 (configuration not stated)	i	0.47
Brc1ccc([C@H]2CN3CCSC3=N2)cc1	i	-0.1
O=c1cc(CN2CCN(c3ccccc3)CC2)c2c(ccc3ccccc32)o1	i	-0.23
Cc1ccc(N2C(=O)C(Cl)=C(Nc3c(C)n(C)n(-c4ccccc4)c3=O)C2=O)cc1	i	0.33
COc1ccc(NS(=O)(=O)c2cccc(C(=O)NNC(=O)c3cccn3C)c2)cc1	i	-0.49
CCOc1ccc(NC(=O)C(C)O)c(NS(=O)(=O)c2ccc(CCNC(C)=O)cc2)c1 (configuration not stated)	i	1.73
CCCn1c(-c2ccncc2)n[nH]c1=S	i	4.82
Cc1ccc(C(=O)NC2(C(F)(F)F)N=C3SCCN3C2=O)cc1 (configuration not stated)	i	1.38
CCC1CSC(=Nc2ccc(C)cc2)N1C(=O)CN1C(=O)NC2(CCCC2)C1=O (configuration not stated)	i	0.47
Cc1cccc(NC(=O)c2ccc(F)c(S(=O)(=O)NCc3ccco3)c2)c1	i	-0.42
C=CCOc1ccc2c(OC)c3ccoc3nc2c1OC	i	1.24
COc1ccccc1-c1nc(C(F)(F)F)c(OC)o1	i	-1.1
O=C(Cc1ccc(Br)cc1)OCC(=O)N1CCc2ccccc2C1	i	0.44
CC(=O)c1cccc(NC(=O)c2ccc(N(C)S(=O)(=O)c3ccc(C)cc3)cc2)c1	i	0.7
CCOC(=O)C1CCCN(C(=O)Cc2ccc(C)cc2)C1 (configuration not stated)	i	-0.74
Further entries
SMILES	KCNQ2 inh	KCNQ2 inh baseline
O=C(CC(c1ccccc1)c1ccccc1)NCCOCc1ccccc1	i	0.73
CC(C)Cn1c(Cc2ccccc2)n[nH]c1=S	i	0.54
COc1ccc(CNC(=O)COc2cc3c(c4oc(=O)cc(C)c24)CCC(C)(C)O3)cc1OC	i	-0.19
COc1cc(/C=C/C(=O)O)ccc1OS(=O)(=O)c1cc(C)ccc1C	i	0.83
CC(=O)Nc1ccc(OC(=O)COc2ccc(Br)cc2)cc1	i	1.67
COc1cc(C(=O)N2CCN(C(=O)c3cc(-c4ccc(Br)cc4)n[nH]3)CC2)cc(OC)c1OC	i	0.8
O=C(NC1CCN(S(=O)(=O)c2ccc(F)cc2)CC1)c1cccnc1	i	-0.48
CC(=O)Oc1ccc2ccccc2c1C(NC(=O)C(C)C)c1cccc([N+](=O)[O-])c1 (configuration not stated)	i	-0.04
CN1CCN(C(=O)CCS(=O)(=O)c2cc3c(cc2Cl)NC(=O)CO3)CC1	i	1.37
CC(=O)Nc1ccc(NC(=O)CSc2nnc(C)n2-c2ccccc2)cc1	i	1
CCOc1cc(/C=C2/SC(=S)N(CC(=O)O)C2=O)ccc1OC(=O)c1cccs1	i	2.38
Cc1ccnc(NS(=O)(=O)c2ccc(NC(=O)c3ccc(Cl)cc3[N+](=O)[O-])cc2)n1	i	3.19
Cn1c(O)c(N=NC(=O)Cn2ccc(C(F)(F)F)n2)c2ccccc21	i	0.81
COC(=O)/C=C/c1cnc2ccccc2c1	i	0.62
CCN(CC)CCOCCOc1cc(C)c(Cl)c(C)c1	i	-2.19
C=CCOc1nc2c(c(=O)n(C)c(=O)n2C)n1Cc1ccccc1	i	0.43
Cc1onc(-c2ccccc2)c1C(=O)OCC(=O)Nc1ccc2c(c1)OCO2	i	0.07
CSc1ncc(Cl)c(C(=O)Nc2cccc(C)c2)n1	i	-0.64
CCOC(=O)C1CCN(S(=O)(=O)c2cn(C)c(=O)n(C)c2=O)CC1	i	-1.55
O=C1NC[C@H](c2ccccc2)N(CC2CCCCC2)C1=O	i	0.15

18 compounds out of the list, ordered by molecular weight, lowest first.
SMILES	KCNQ2 inh	KCNQ2 inh baseline
CC(C)Cn1c(Cc2ccccc2)n[nH]c1=S	i	0.54
O=C1NC[C@H](c2ccccc2)N(CC2CCCCC2)C1=O	i	0.15
CCOC(=O)C1CCCN(C(=O)Cc2ccc(C)cc2)C1 (configuration not stated)	i	-0.74
CSc1ncc(Cl)c(C(=O)Nc2cccc(C)c2)n1	i	-0.64
CCN(CC)CCOCCOc1cc(C)c(Cl)c(C)c1	i	-2.19
C=CCOc1nc2c(c(=O)n(C)c(=O)n2C)n1Cc1ccccc1	i	0.43
Cn1c(O)c(N=NC(=O)Cn2ccc(C(F)(F)F)n2)c2ccccc21	i	0.81
CCOC(=O)C1CCN(S(=O)(=O)c2cn(C)c(=O)n(C)c2=O)CC1	i	-1.55
COc1cc(/C=C/C(=O)O)ccc1OS(=O)(=O)c1cc(C)ccc1C	i	0.83
O=C(NC1CCN(S(=O)(=O)c2ccc(F)cc2)CC1)c1cccnc1	i	-0.48
CC(=O)Nc1ccc(OC(=O)COc2ccc(Br)cc2)cc1	i	1.67
CC(=O)Nc1ccc(NC(=O)CSc2nnc(C)n2-c2ccccc2)cc1	i	1
CN1CCN(C(=O)CCS(=O)(=O)c2cc3c(cc2Cl)NC(=O)CO3)CC1	i	1.37
CC(=O)Oc1ccc2ccccc2c1C(NC(=O)C(C)C)c1cccc([N+](=O)[O-])c1 (configuration not stated)	i	-0.04
Cc1ccnc(NS(=O)(=O)c2ccc(NC(=O)c3ccc(Cl)cc3[N+](=O)[O-])cc2)n1	i	3.19
CCOc1cc(/C=C2/SC(=S)N(CC(=O)O)C2=O)ccc1OC(=O)c1cccs1	i	2.38
COc1ccc(CNC(=O)COc2cc3c(c4oc(=O)cc(C)c24)CCC(C)(C)O3)cc1OC	i	-0.19
COc1cc(C(=O)N2CCN(C(=O)c3cc(-c4ccc(Br)cc4)n[nH]3)CC2)cc(OC)c1OC	i	0.8

The list continues.
SMILES	KCNQ2 inh	KCNQ2 inh baseline
O=C(Nc1cccc2nsnc12)c1cccs1	i	0.04
CCOC(=O)C(CC)n1cnc2sc3c(c2c1=O)CCC3 (configuration not stated)	i	-0.15
Cc1ccc(CN2C(=O)/C(=C\c3ccc(C(=O)NCc4cccnc4)cc3)Oc3ccccc32)cc1	i	-1.17
CCC1Oc2ccc(C)cc2N(CC(=O)NCc2cccc(OC)c2)C1=O (configuration not stated)	i	-1.05
COC(C)c1oc2c(C)c3oc(=O)cc(C)c3cc2c1C (configuration not stated)	i	-1.09
CC1Cn2c(nnc2-c2cccc(N)c2)S1 (configuration not stated)	i	1.56
CCC(C)NC(=O)C1CCCN(S(=O)(=O)c2ccc3c(c2)CC(C)N3C(C)=O)C1 (configuration not stated)	i	0.48
Cc1cccc(N2CCN(C(=O)c3cc4c(=O)n(C)c5ccccc5c4n3C)CC2C)c1 (configuration not stated)	-6.06*	-1.29*
CC(NC(=O)c1ccccc1Cl)C1CC2CCC1C2 (configuration not stated)	i	2.17
CCc1cc(C(=O)Nc2cc(Cl)ccc2N2CCN(C)CC2)sc1C	i	-0.53
CCN(CC)C(=O)C(C(=O)c1cccc([N+](=O)[O-])c1)n1cc(Cl)ccc1=O (configuration not stated)	i	-1.58
O[C@H]1COC2C1OC[C@@H]2O (some centres not stated)	i	1.86
O=c1oc2cc(OCc3ccc(C(F)(F)F)cc3)ccc2cc1-c1ccccn1	i	1.24
CC(=O)c1ccc(-c2ccc([C@H]3[C@H]4C=CC[C@@H](C)[C@@H]4C(=O)N3Cc3ccccc3)c(F)c2)cc1	i	1.04
O=C(Oc1cc(=O)oc2c1c(=O)n1c3c(cccc23)CC1)c1ccc(F)cc1	i	-0.84
Cc1nn(CC(=O)N2CCN(c3ccc(Cl)cc3)CC2)c(=O)c2cccn12	i	0.46
O=C(COc1ccc(F)cc1)N1CCCCCCC1	i	-0.77
O=C(N/N=C/c1cccnc1)c1cc(C2CC2)nc2ccccc12	i	-0.6
O=C(Nc1ccc(N2CCOCC2)cc1)c1c(F)cccc1Cl	i	-0.72
COC(=O)C(Cc1c[nH]c2ccccc12)NC(C)=O (configuration not stated)	i	0.09
COc1cc(C(=O)NC(c2ccccc2)c2ccccc2)cc(OC)c1OC	i	0.12
CC[n+]1c(/C=C2/C=C(C)CC(C)C2)sc2ccccc21 (configuration not stated)	i	0.21
c1ccc(-c2cc3c(N4CCCCC4)ncnc3s2)cc1	i	1.6
COc1cc([N+](=O)[O-])ccc1-c1ccc(C(=O)Nc2ccc(NC(C)=O)cc2)o1	i	0.35
COc1ccccc1/C=N/NS(=O)(=O)c1ccccc1	i	2.61
Cc1cccc(C)c1NC(=O)c1c[nH]c2ccccc12	i	0.01
Cn1c(N)c(C(=O)CSc2nc3ccccc3c(=O)n2Cc2ccccc2)c(=O)n(C)c1=O	i	-0.13
Cc1cc2c(cc1C)C(c1cccc(F)c1)CC(=O)N2 (configuration not stated)	i	0.91
O=C(CC1C(=O)NCCN1C(=O)c1ccccc1)Nc1cc(Cl)ccc1Cl (configuration not stated)	i	0.01
CCCOc1cccc(C(=O)Nc2cccc(NC(=O)c3ccco3)c2)c1	i	-0.03
C/C(=N/OC(=O)c1ccc(C(F)(F)F)cc1)c1oc(C)nc1C	i	-0.51
O=C(COc1ccc2c3c(c(=O)oc2c1)CCCC3)N1CCN(c2ccccc2)CC1	i	-0.35
C/C(=N/NC(=O)c1ccc(C)s1)c1cccnc1	i	-0.55
Cc1ccn(Cc2n[nH]c(=S)n2Cc2ccccc2)n1	i	0.08
C=CCn1c(C)cc(C2=NNC(=NCC)SC2)c1C	i	0.27
CC(C)c1ccc(CNNC(=O)c2ccccc2)cc1	i	1.28
Cc1ccc(NCc2nnc(SCC(=O)OC3CCCCC3)o2)c(C)c1	i	1.68
O=C(CNC(=O)c1ccccc1O)N/N=C/c1ccccn1	i	-0.88
O=S(=O)(c1ccccc1)N(CC(O)CN1CCCC1)c1ccccc1 (configuration not stated)	i	0.02
Nc1ccc(N2CCN(C(=O)c3ccco3)CC2)cc1	i	1.53
COc1ccccc1NC(=O)c1cc(C(=O)Nc2ccccc2OC)n(C)n1	i	2.26
CC(C)C(=O)N=C1SC2CS(=O)(=O)CC2N1Cc1ccc(Cl)cc1 (configuration not stated)	i	0.51
COc1ccc(CNC(=O)CSc2nc3ccc(N)cc3s2)cc1	i	-0.19
COC(=O)N/N=C/c1cn(CCCOc2ccc(C)cc2)c2ccccc12	i	0.29
COc1ccc(C(=O)CCNc2ccc3c(c2)OCCO3)cc1	i	-0.04
N=C1C(c2ccccc2)=C(O)CN1c1cccc(O)c1	i	-0.05
CCc1ccc(CNC(=O)Cc2ccc(NC(=O)C3=C(C)OCCS3)cc2)cc1	i	0.22
COC(=O)CCc1sc(NC2CCCCC2)nc1-c1ccc(OC)cc1	i	-0.75
CC(C)C(=O)NC(NCC1CCCO1)C(Cl)(Cl)Cl (configuration not stated)	i	-1.66
